Screens from PubChem.
HADH2 inh = inhibitors of human HADH2 dehydrogenase; 3.4% of 73,000 active; recombinant HADH2, NADH fluorescence, beta-hydroxybutyryl-CoA; Potency, µM (doses to about 57.1 µM), inactives show at the top dose activity change, negative = inhibition, actives largely listed as inhibitors; further: potency means the concentration at half of the fitted maximal effect; on the % scale 0 is the no-effect control and ±100 the full control effect; nearly all actives have a fitted effect of over 60% in size; many of its hits are not listed in these tables
Target sequence (Q99714 whole entry, looked up, one chain of several): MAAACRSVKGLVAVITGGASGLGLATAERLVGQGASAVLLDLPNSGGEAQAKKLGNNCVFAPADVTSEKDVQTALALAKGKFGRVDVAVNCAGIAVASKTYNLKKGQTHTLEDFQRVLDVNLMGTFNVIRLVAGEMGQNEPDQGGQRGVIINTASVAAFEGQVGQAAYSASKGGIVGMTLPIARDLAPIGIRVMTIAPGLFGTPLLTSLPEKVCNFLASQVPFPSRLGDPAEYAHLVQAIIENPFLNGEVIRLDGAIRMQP
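His-tagged recombinant enzyme from E. coli, 20 nM, preincubated 15 min RT with compound; reaction started with 1 mM NAD+ and 90 uM beta-hydroxybutyryl-CoA in 100 mM Tris-HCl pH 9.0. NADH fluorescence (ex 360/em 450) read over 4 min; last-minus-first difference.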
Rhodamine autofl = rhodamine region autofluorescence; max dye-equivalent concentration, M; Rhodamine-region fluorescence, 547/598 nm, Tris buffer; stronger effect = higher value; 0.05% of 59,000 active; in the data active means max dye-equivalent concentration above about 11 nM; inconclusive means between about 1.1 nM and that limit
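Intensities are converted to rhodamine-equivalent concentration using a six-point rhodamine standard on each plate. Compounds sit 15 min at room temperature in 100 mM Tris buffer, pH 8.0; read uses the 547/598 nm excitation/emission pair.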
Fluorescein autfl = compound autofluorescence in fluorescein spectral region. AID 593. Compound autofluorescence, 480/540 nm, fluorescein-equivalent; stronger effect = higher value. 0.91% of 59,000 active. max fluorescein-equivalent concentration, M; in the data active means max fluorescein-equivalent concentration above about 10 nM; inconclusive means between about 1.1 nM and that limit
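First, buffer (100 mM Tris, pH 8.0) dispensed; second, compounds and fluorescein standards pinned in; third, 15 min room-temperature incubation; finally, imaging at ex 480 nm/em 540 nm. Fluorescence normalized against the six-point fluorescein curve.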
Epigenetic mod = epigenetic modulators derepressing GFP locus in mouse cells | mouse C127i GFP locus derepression, cytometry, 30 h | 0.09% of 68,000 active | Potency, µM (doses to about 46.1 µM), without a hit: at the highest dose GFP derepression (activation); further: % of control where 0% means no effect
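Read-out is the number of GFP-positive cells, scored as fluorescent objects 20 to 120 um wide, reflecting derepression of a silenced CMV-GFP reporter in murine C127i cells after 30 h compound exposure at 37 C.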
UbGFP stabilizer = inhibits proteasome, raising ubiquitin-GFP reporter fluorescence; Potency, µM (series often up to 45.9 µM), without a hit: top-dose activation (GFP accumulation), hits mostly activators; 67,000 tested, under 10 active; AID 526; Ubiquitin-GFP reporter cells, proteasome inhibition, GFP fluorescence; response scale: untreated = 0%, 10 µM MG-132 = 100%; active means well fitted activation curve with a large enough effect, not every such curve was filed as active; inconclusive means small, poorly fitted or top-dose-only effect, or another doubt; inactive means no such curve, though single readings can be large or run the other way; further: potency means the concentration at half of the fitted maximal effect
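Reporter cells (U2OS, ubiquitin-G76V-GFP fusion) are plated overnight, then treated 4 hr at 37 °C with compound titrations from 46 uM down to 2.9 nM. Activity is scaled against untreated cells and 10 uM MG-132.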
HBB splice mod = alters splicing of the hemoglobin beta chain; 0.06% of 65,000 active; HBB splicing reporter cell assay, activation; EGFP reporter with mutant IVS2-654 intron; response scale: normalised to 500 nM splice-correcting PNA; Potency, µM (highest dose often 46.1 µM), inactives show at the highest dose activation, usual class: activators; AID 925; further: potency means the concentration at half of the fitted maximal effect; 0% is about no effect
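Compounds were applied for 2 days to HeLa EGFP-654 cells, 500/well in Optimem with 2% FCS. The reporter's EGFP is disrupted by mis-splicing of beta-globin intron IVS2-654. Readout: summed well GFP fluorescence from 488 nm laser scanning; reference was 500 nM antisense […] 654 PNA.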
Texas Red fluor = compound fluoresces in the Texas Red spectral region; Compound fluorescence, Texas Red channel, 547/618 nm; stronger effect = higher value; max dye-equivalent concentration, M; 0.06% of 59,000 active; AID 587; in the data active means max dye-equivalent concentration above about 10 nM; inconclusive means between about 1.1 nM and that limit
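Dye-equivalent concentrations come from scaling compound signal (ex 547, em 618 nm) to six Texas Red standard concentrations run on every plate, after 15 min room-temperature incubation in pH 8.0 Tris (100 mM).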
15-hLO inh = blocks human 15-lipoxygenase activity; P16050; purified 15hLO-1, xylenol orange hydroperoxide absorbance; Potency, µM (series often up to 57.1 µM), for the others: at the highest dose activity change, negative = inhibition, actives largely listed as inhibitors; 1.4% of 74,000 active; AID 887; further: potency means the concentration at half of the fitted maximal effect; on the % scale 0 is the no-effect control and ±100 the full control effect; nearly all actives have a fitted effect of over 55% in size
Target sequence (P16050 whole entry, looked up): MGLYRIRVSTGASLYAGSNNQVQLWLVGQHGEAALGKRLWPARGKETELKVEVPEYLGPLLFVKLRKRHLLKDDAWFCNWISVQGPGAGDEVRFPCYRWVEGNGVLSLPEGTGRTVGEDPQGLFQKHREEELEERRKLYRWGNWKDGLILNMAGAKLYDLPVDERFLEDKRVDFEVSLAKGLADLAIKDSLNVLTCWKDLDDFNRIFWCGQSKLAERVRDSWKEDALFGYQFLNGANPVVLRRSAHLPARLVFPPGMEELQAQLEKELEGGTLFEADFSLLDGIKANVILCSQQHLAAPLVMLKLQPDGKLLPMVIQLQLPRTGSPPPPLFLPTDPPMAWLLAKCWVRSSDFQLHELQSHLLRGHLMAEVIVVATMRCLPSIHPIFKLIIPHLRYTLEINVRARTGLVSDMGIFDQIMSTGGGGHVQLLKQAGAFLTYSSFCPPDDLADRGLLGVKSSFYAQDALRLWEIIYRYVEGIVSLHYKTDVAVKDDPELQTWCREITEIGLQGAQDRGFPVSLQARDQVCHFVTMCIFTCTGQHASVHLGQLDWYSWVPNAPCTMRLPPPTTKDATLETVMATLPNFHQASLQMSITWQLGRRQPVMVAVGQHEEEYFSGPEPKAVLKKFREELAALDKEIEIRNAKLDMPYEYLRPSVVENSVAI
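Readout: Fe(III)-xylenol orange absorbance, 573-to-405 nm ratio as reaction progress. Enzyme 40 nM purified human 15hLO-1, substrate 50 uM arachidonic acid, 6 min RT after 15 min compound preincubation; Hepes pH 7.5 buffer with Triton X-100.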
4MU fluor = compound fluoresces in the 4-MU spectral region | 11% of 59,000 active | compound autofluorescence, 340/450 nm, 4-MU equivalents; stronger effect = higher value | max dye-equivalent concentration, M; in the data active means max dye-equivalent concentration above about 10 nM; inconclusive means mostly about 1.1 nM to 9.6 nM
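Compounds in 100 mM Tris, pH 8.0, incubated 15 min at room temperature, then fluorescence read at 340 nm excitation/450 nm emission. Signal converted to 4-MU dye-equivalent concentration using an on-plate six-point 4-MU standard curve.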
Pol III holo inh = DNA polymerase III holoenzyme inhibition; reconstituted DNA polymerase III holoenzyme replication, biochemical; Potency, µM (highest dose often 57.1 µM), for inactives: at the highest dose activity change, negative = inhibition; 0.25% of 71,000 active; further: potency means the concentration at half of the fitted maximal effect; on the % scale 0 is the no-effect control and ±100 the full control effect
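Reconstituted *E. coli* holoenzyme (0.35 nM Pol III, 1 nM beta, 154 nM SSB, 2 nM primase) was preincubated with compound for 15 min at RT. Synthesis on 1.4 nM ssM13Gori ran 35 min, then was stopped with PicoGreen/EDTA and read as dsDNA fluorescence.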
Starred values were filed as active, the others as inactive; i = inactive; ? = inconclusive; · = no result given; [ ] = dose if it differs, or a comment. Unless noted, the call rests on the fitted dose curve; in most records, active means well fitted curve in the direction sought with a large enough effect; inconclusive means small, poorly fitted or top-dose-only effect, or another doubt; inactive means no such curve, though single readings can be large; an effect the other way counts as inactive or inconclusive. The list is partial; count on the stated rates, not on these rows.

The opening 5 records (preview)
Letter code – A = HADH2 inh; B = Rhodamine autofl; C = Fluorescein autfl; D = Epigenetic mod; E = UbGFP stabilizer; F = HBB splice mod; G = Texas Red fluor; H = 15-hLO inh; I = 4MU fluor; J = Pol III holo inh
CCOC(=O)N1CCN(C(=O)NC23CC4CC(CC(C4)C2)C3)CC1
  A = 11%	B = ·	C = ·	D = 0%	E = 2%	F = 1.6%	G = ·	H = 6%	I = ·	J = -8%
COc1ccccc1OCC(=O)c1[nH]c(C)c(C(C)=O)c1C
  A = 0%	B = i	C = ?	D = 0%	E = 6%	F = -2.5%	G = i	H = -21%	I = i	J = 6%
Fc1ccc(-c2cc3nc(-c4ccccc4)cc(N4CCN(CCN5CCOCC5)CC4)n3n2)cc1
  A = 32µM*	B = i	C = ?	D = 1%	E = 3%	F = -0.4%	G = i	H = -11%	I = 2.5e-07M*	J = -6%
Cc1[nH]n2c(=O)c3c(nc2c1-c1ccccc1)CCCC3
  A = -11%	B = i	C = i	D = 0%	E = 1%	F = 0.2%[1.84 µM]	G = i	H = 3%	I = i	J = -5%
CCn1c(/C(C#N)=C(\O)CCc2ccccc2)nc2ccccc21
  A = 6%	B = i	C = i	D = 5%	E = -4%	F = -2.3%	G = i	H = -24%	I = i	J = -14%

The listing, previewed entries included:
Letter code – A = HADH2 inh; B = Rhodamine autofl; C = Fluorescein autfl; D = Epigenetic mod; E = UbGFP stabilizer; F = HBB splice mod; G = Texas Red fluor; H = 15-hLO inh; I = 4MU fluor; J = Pol III holo inh
CCOC(=O)N1CCN(C(=O)NC23CC4CC(CC(C4)C2)C3)CC1
  A = 11%	B = ·	C = ·	D = 0%	E = 2%	F = 1.6%	G = ·	H = 6%	I = ·	J = -8%
COc1ccccc1OCC(=O)c1[nH]c(C)c(C(C)=O)c1C
  A = 0%	B = i	C = ?	D = 0%	E = 6%	F = -2.5%	G = i	H = -21%	I = i	J = 6%
Fc1ccc(-c2cc3nc(-c4ccccc4)cc(N4CCN(CCN5CCOCC5)CC4)n3n2)cc1
  A = 32µM*	B = i	C = ?	D = 1%	E = 3%	F = -0.4%	G = i	H = -11%	I = 2.5e-07M*	J = -6%
Cc1[nH]n2c(=O)c3c(nc2c1-c1ccccc1)CCCC3
  A = -11%	B = i	C = i	D = 0%	E = 1%	F = 0.2%[1.84 µM]	G = i	H = 3%	I = i	J = -5%
CCn1c(/C(C#N)=C(\O)CCc2ccccc2)nc2ccccc21
  A = 6%	B = i	C = i	D = 5%	E = -4%	F = -2.3%	G = i	H = -24%	I = i	J = -14%
COc1ccc(NC(=O)CSc2nnc(-c3ccccn3)n2N)cc1
  A = 2%	B = i	C = ?	D = -2%	E = 11%	F = 4.6%[1.84 µM]	G = i	H = 11%	I = i	J = -1%
O=C(Nc1nc(-c2nc3ccccc3s2)cs1)c1ccc(S(=O)(=O)N2CCOCC2)cc1
  A = ?	B = i	C = i	D = 0%	E = 8%	F = -0.5%	G = i	H = 17%	I = 1.6e-08M*	J = -6%
Cc1cc(=O)oc2c1c(C)nn2-c1nn[nH]n1
  A = -4%	B = i	C = i	D = -3%	E = -6%	F = -0.8%	G = i	H = -6%	I = i	J = -10%
Cc1[nH]n2c(=O)c3c(nc2c1-c1ccccc1)CCC3
  A = -9%	B = i	C = i	D = -3%	E = -2%	F = -1.5%	G = ?	H = 6%	I = i	J = -2%
COc1ccc(CNC(=O)c2onc(C)c2Cl)cc1
  A = -2%	B = ·	C = ·	D = 2%	E = 4%	F = -0.4%	G = ·	H = 3%	I = ·	J = -3%
c1coc(C2Nc3ccccc3-c3nc4ccccc4n32)c1 (configuration not stated)
  A = 16µM*	B = i	C = i	D = 2%	E = -6%	F = -0.2%	G = i	H = 13%	I = 3.2e-06M*	J = -2%
Cc1ccccc1OCCCC(=O)Nc1ccc2c(c1)OCO2
  A = -20%	B = i	C = i	D = 0%	E = 0%	F = -0.5%	G = i	H = -14%	I = i	J = -2%
COc1ccc(CCNC(=O)c2nnc(Cc3c(F)cccc3Cl)o2)cc1OC
  A = 8%	B = i	C = i	D = -5%	E = 11%	F = -1.8%[1.84 µM]	G = i	H = -2%	I = i	J = 0%
CCOC(=O)CNC(=O)CSc1nc2cccnc2n1C
  A = 4%	B = i	C = ?	D = -1%	E = -2%	F = -2.0%	G = i	H = -1%	I = i	J = 40%
CCN1CCN(Cc2nc(N)nc(Nc3ccc(C)c(C)c3)n2)CC1
  A = 25%	B = i	C = i	D = 0%	E = 10%	F = -4.2%[57.5 µM]	G = i	H = 17%	I = i	J = 7%

(cont.)
SMILES	HADH2 inh	Rhodamine autofl	Fluorescein autfl	Epigenetic mod	UbGFP stabilizer	HBB splice mod	Texas Red fluor	15-hLO inh	4MU fluor	Pol III holo inh
CCCOc1ccc2ccccc2c1/C=N/n1cnnc1	-5%[11.4 µM]	·	·	-4%	0%[9.17 µM]	0.9%[0.0738 µM]	·	7%[11.4 µM]	·	-2%[11.4 µM]
COCCNC(=O)c1c(N)n(CCCn2ccnc2)c2nc3ccccc3nc12	4%	i	i	3%	1%	-1.0%	i	6%	i	-2%
CCOC(=O)c1sc(NC(=O)CSc2nc3c(cc2C#N)CCCCCC3)c(C#N)c1C	6%	i	?	0%	-7%	-2.1%[57.5 µM]	i	4%	i	-2%
COC(=O)c1sc(S(=O)(=O)N2CCN(c3ccccc3)CC2)c(C(=O)OC)c1C	12%	i	i	2%	3%	-0.2%	i	-5%	i	3%
CC[C@H](C(=O)c1cccs1)C(O)(C(F)(F)F)C(F)(F)F	-5%[11.4 µM]	i	i	-3%[9.22 µM]	-3%[9.17 µM]	1.4%[9.22 µM]	?	4%[11.4 µM]	i	-12%[11.4 µM]
Cc1nn(C)c(C)c1NC(=O)c1ccnn1C	?	i	i	-1%	-3%	0.8%	?	-6%	i	12%
Cc1c(NC2=NC3(CCCCC3)Cc3ccccc32)c(=O)n(-c2ccccc2)n1C	-4%	·	·	-2%	-19%	-1.2%	·	6%	·	-5%
O=C1CC(c2ccccc2)n2nc(NC(=O)C3CCCO3)nc2N1 (configuration not stated)	-1%	i	?	0%	-1%	1.6%[57.5 µM]	i	6%	i	1%
Cc1nc(COC(=O)c2ccc(CO)cc2)cs1	-1%	i	i	0%	-2%	0.4%[57.5 µM]	i	8%	3.4e-08M*	6%
CSCC[C@H](NC(=O)CCn1nnc2ccccc2c1=O)C(=O)O	-4%	i	i	0%	1%	1.5%	i	10%	i	-2%
CCCc1cc(-c2[nH]ncc2-c2ccc(C(=O)OCC)o2)c(O)cc1O	14%	i	?	0%	2%	-0.2%	i	?	?	3%
O=C(CSCc1ccccc1)Nc1ccc2c(c1)OCO2	-29%	i	i	1%	18%	-0.4%	?	-7%	i	-2%
COc1cccc(-c2cc(C(F)(F)F)nc(N3CCN(c4ccccc4)CC3)n2)c1	8%	i	?	6%	-3%	0.1%	i	-36%	i	10%
O=C(c1cc(S(=O)(=O)N2CCOCC2)ccc1F)N1CCCc2ccccc21	3%	i	i	-3%	-4%	3.0%	?	11%	i	-4%
Nc1cc(=O)[nH]c(SCc2nc3ccccc3n2Cc2ccccc2)n1	-4%[11.4 µM]	·	·	0%	?	1.3%[0.0738 µM]	·	6%[11.4 µM]	·	-4%[11.4 µM]
CC(Cc1ccccc1)C(=O)N1CCN(C)CC1 (configuration not stated)	?	·	·	·	·	-0.5%	·	6%	·	-2%
CC(Sc1nnc(N)s1)c1ccccc1Cl (configuration not stated)	?	·	·	0%	9%	-0.2%	·	-18%	·	5%
CCC(=O)N1C(C(=O)O)CSC1c1ccc(OC)cc1 (configuration not stated)	3%	·	·	·	13%	1.2%	·	0%	·	-4%
Cc1nn(-c2ccccn2)c2c1C(c1ccsc1)C1=C(CCCC1=O)N2 (configuration not stated)	?	i	i	4%	-3%	-0.5%[57.5 µM]	i	-2%	3.8e-07M*	4%
CCCc1cc(C(=O)Cc2ccc(C(=O)OCC)o2)c(O)cc1O	?	i	i	2%	5%	-0.2%	i	?	?	-8%
COc1ccc(-c2cnnn2-c2ccc(NC(=O)c3ccco3)cc2)cc1OC	-7%	i	i	4%	-1%	2.3%[0.369 µM]	i	0%	i	-2%
O=C(CSc1nccc(=O)[nH]1)N1c2ccccc2CCc2ccccc21	38%[activator]	i	i	3%	1%	-0.2%[57.5 µM]	i	-15%	i	-6%
COc1ccc(-c2nnc(NC(=O)c3cc(C)on3)s2)cc1	-26%	i	i	2%	1%	0.5%	i	9%	i	4%
CS(=O)(=O)N(CC(=O)Nc1ccc2c(c1)OCCO2)Cc1ccccc1	3%	i	i	0%	13%	1.0%	i	2%	i	-1%
Cc1c(C2OC(=O)C3(CCCCC3)C(=O)C2(C)C)c(=O)n(-c2ccccc2)n1C (configuration not stated)	5%	i	?	0%	·	2.8%[0.369 µM]	i	2%	i	-5%
